# High-throughput results as filed in PubChem.
# StopGo reporter: High Throughput Screening for Foot and Mouth Disease Virus Antivirals | 1.2% of 410,000 active | human cells with a luciferase reporter of 2A StopGo recoding; control for the full effect not named in the record | Potency, µM (series often up to 57.9 µM), for the others: at the highest dose signal change, negative = less light | AID 1159524, 2015; active = well fitted falling curve with a large enough effect; inconclusive = small, poorly fitted or top-dose-only effect; inactive = no such curve, though single readings can be large or run the other way; tested in HEK293T cells; note: % is set by controls: 0 for no effect and ±100 for the full control effect; nearly all actives have a fitted effect of over 45% in size; luciferase light after 4 h
# MARV entry inh: qHTS for inhibitors of binding or entry into cells for Marburg Virus | Marburg virus pseudotyped entry inhibition, cell reporter; control for the full effect not named in the record; about a third of the inactives were read at about 46 µM | Potency, µM (series often up to 37.8 µM), without a hit: at the top dose activity change, negative = inhibition, most hits filed as inhibitors | 1.8% of 300,000 active | AID 540276, 2011; active = well fitted inhibition curve with a large enough effect; inconclusive = small, poorly fitted or top-dose-only effect, or effect the other way; inactive = flat fitted curve, though single readings scatter; tested in HEK293 cells; about a fifth of its hits are not listed in these tables; note: % is set by controls: 0 for no effect and ±100 for the full control effect; luciferase read-out
# Lassa entry inh: qHTS for Inhibitors of binding or entry into cells for Lassa Virus | 1.2% of 300,000 active | Lassa virus pseudotype entry inhibition, cell reporter; control for the full effect not named in the record | AID 540256, 2011 | Potency, µM (highest dose often 37.9 µM), inactives show at the highest dose activity change, negative = inhibition, usual class: inhibitors; active means well fitted inhibition curve with a large enough effect; inconclusive means small, poorly fitted or top-dose-only effect, or effect the other way; inactive means flat fitted curve, though single readings scatter; tested in HEK293 cells; note: % is set by controls: 0 for no effect and ±100 for the full control effect; nearly all actives have a fitted effect of over 50% in size; luciferase read-out
# SARS PLP yeast: qHTS of Yeast-based Assay for SARS-CoV PLP | S. cerevisiae expressing SARS-CoV PLpro, growth rescue; control for the full effect not named in the record | Potency, µM (top dose mostly 32.9 µM), for inactives: at the top dose activity, positive = growth rescue | 0.19% of 330,000 active | AID 485353, 2010; note: 0% is about no effect; nearly all actives have a fitted effect of over 55% in size; growth read by luminescence after 48 h
# Cruzain inh Det: qHTS Assay for Promiscuous and Specific Inhibitors of Cruzain (with detergent); Cruzipain (Trypanosoma cruzi), P25779; purified cruzain, Z-FR-AMC fluorescence, 0.01% Triton; Potency, µM, without a hit: max response, negative = inhibition, most hits filed as inhibitors; 0.43% of 200,000 active; AID 1478, 2009; active = well fitted curve in the direction sought with a large enough effect; inconclusive = small, poorly fitted or top-dose-only effect, or another doubt; inactive = no such curve, though single readings can be large; an effect the other way counts as inactive or inconclusive;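 note: plate controls were neutral wells for no effect and buffer without enzyme for full effect; nearly all actives have a fitted effect of over 40% in size; top concentration of the series not given in the record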
# Target sequence (P25779 123-467 limits assumed): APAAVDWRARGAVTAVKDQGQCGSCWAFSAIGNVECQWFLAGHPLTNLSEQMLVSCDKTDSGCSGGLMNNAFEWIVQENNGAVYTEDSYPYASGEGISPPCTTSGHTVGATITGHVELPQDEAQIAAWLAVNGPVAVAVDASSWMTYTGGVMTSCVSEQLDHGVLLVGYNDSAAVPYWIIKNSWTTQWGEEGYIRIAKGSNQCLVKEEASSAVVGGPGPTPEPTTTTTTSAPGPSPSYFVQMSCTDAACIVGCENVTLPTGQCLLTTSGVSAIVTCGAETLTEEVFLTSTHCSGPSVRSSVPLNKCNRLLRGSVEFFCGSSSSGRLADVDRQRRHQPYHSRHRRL
#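 Detergent-containing run (0.01% Triton X-100) in acetate buffer pH 5.5 with 5 mM DTT: enzyme at 1.5 nM final, 15 min compound preincubation at room temperature, then 2 uM Z-FR-AMC substrate. Activity taken as 60 s fluorescence increase at 360/450 nm.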
# RE007 growth inh: qHTS Assay for Inhibitors of the HIV-1 protein Vpr; S. pombe RE007 Vpr strain, BacTiter-Glo ATP luminescence, 24 h; control for the full effect not named in the record; Potency, µM (highest dose often 92.2 µM), for the others: at the top dose activity change, negative = less growth; 0.21% of 360,000 active; active = well fitted falling curve with a large enough effect; inconclusive = small, poorly fitted or top-dose-only effect; inactive = no such curve, though single readings can be large or run the other way;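 note: % is set by controls: 0 for no effect and ±100 for the full control effect; nearly all actives have a fitted effect of over 50% in size; the assay follows cell death caused by Vpr and the record does not say whether a fall means rescue or toxicity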
#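 Fission yeast strain RE007, carrying one chromosomally integrated HIV-1 vpr copy, was seeded at OD 0.01 in PMG+AL medium with 23 nL pinned compound. After 24 h at 30 °C and 99% humidity, viability was read by BacTiter-Glo luminescence.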
# Cruzain noTriton: qHTS Assay for Promiscuous and Specific Inhibitors of Cruzain (without detergent); Cruzipain (Trypanosoma cruzi), P25779; purified cruzain, Z-FR-AMC fluorescence, no detergent; Potency, µM, inactives show max response, negative = inhibition, usual class: inhibitors; 2.3% of 200,000 active; AID 1476, 2009; active = well fitted curve in the direction sought with a large enough effect; inconclusive = small, poorly fitted or top-dose-only effect, or another doubt; inactive = no such curve, though single readings can be large; an effect the other way counts as inactive or inconclusive;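 note: plate controls were enzyme without inhibitor for no effect and buffer without enzyme for full effect; nearly all actives have a fitted effect of over 40% in size; top concentration of the series not given in the record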
#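 Detergent-free condition (0.00005% Triton X-100) in acetate buffer pH 5.5 with DTT. 1.5 nM enzyme and compound were pre-mixed 15 min, then 2 uM Z-FR-AMC substrate added; reaction progress from fluorescence change between first and third reads (60 s).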
# NS1 inh: qHTS Assay for Inhibitors of Influenza NS1 Protein Function; S. cerevisiae slowed by influenza A NS1, growth recovery by OD600; AID 2326, 2010; 0.4% of 270,000 active; Potency, µM (titrated, usually from 46.1 µM), for inactives: top-dose activity, positive = more growth; note: actives are rising curves; nearly all actives have a fitted effect of over 50% in size
#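 Read-out: OD600 growth recovery of NS1-expressing budding yeast. Cells grown overnight at 30C in -URA glucose medium, washed, resuspended and diluted 1:100 in 2% galactose assay medium, pH 6.0. Same strain lacking NS1 served as positive control.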
# The depositor's hits bear a star; ? = inconclusive; · = no result given; & = joins results of further samples; [ ] = another dose, or the depositor's remark. Unless noted, calls come from the whole dose curve; as a rule, active means well fitted rising curve with a large enough effect; inconclusive means small, poorly fitted or top-dose-only effect; inactive means no such curve, though single readings can be large or run the other way. Potency is the fitted concentration of half-maximal effect. This is a random part of the collection; any-hit rate near 4.5%.
SMILES,StopGo reporter,MARV entry inh,Lassa entry inh,SARS PLP yeast,Cruzain inh Det,RE007 growth inh,Cruzain noTriton,NS1 inh
CN(C)S(=O)(=O)c1cccc(NC(=O)COc2ccc(S(=O)(=O)N3CCOCC3)cc2Cl)c1,-22%,-6%,6%,3%,·,-14%,·,·
COc1ccccc1/C=N/OCc1ccc(C#N)cc1,1%,5%[46.1 µM],15%[46.1 µM],0%,·,1%,·,3%
Cc1ccc(CSCc2ccc(C(=O)NC3CCCC3)o2)cc1,2%,15%[46.1 µM],1%[46.1 µM],-4%,·,215%,·,·
CCOC(=O)C1CCN(C(=O)c2cc(S(=O)(=O)N(C)C)ccc2N2CCCC2)CC1,23%,6%,-7%,3%,·,5%,·,0%
O=S(=O)(NCCc1ccc(Cl)cc1)c1cccs1,65%[activator],·,·,-3%,·,-15%,·,-30%
O=C(Nc1ccc2c(c1)OCO2)c1cccc2c1C(=O)N(C1CCCCC1)C2,2%,0%[46.1 µM],0%,0%,·,-4%,·,-9%
O=C(Cn1nc(-c2ccccc2)c2ccccc2c1=O)Nc1ccc2c(c1)nc1n2CCOC1,24%,1%,-11%,1%,-2.0%,-2%,?,-31%
CCN(CC)S(=O)(=O)c1ccc(/C=C/C(=O)OCC(=O)c2c(N)n(C)c(=O)n(C)c2=O)cc1,?,17%[46.1 µM],?,0%,·,-17%,·,-16%
Cc1cc(C)n(-c2nc3ccccc3c(=O)n2OCC(=O)OCc2ccccc2)n1,-17%,?,?,-4%,-4.1%,-14%,-22%,-86%
Cc1ccc(NC(=O)CSCc2cc(=O)n3ccsc3n2)c(C)c1,-14%,·,·,3%,·,0%,·,-4%
O=C1OC(/C=C/c2ccccc2)=NC/1=C\c1cccnc1,4%,5%[46.1 µM],?,1%,·,13%,·,·
COc1cc2c(cc1NC(=O)C(C)OC(=O)c1ccc(S(=O)(=O)Nc3ccccc3Cl)cc1)oc1ccccc12 (stereo not given),11%,·,·,-1%,·,-14%,·,-1%
CC1Cc2cc(S(=O)(=O)CCC(=O)NCc3ccco3)ccc2N1C(=O)C1CC1 (stereo not given),2%,·,·,21%,·,-3%,·,7%
Cc1cccc(Sc2nc(-c3ccccc3)ccc2C#N)c1,-16%,-4%,-15%,-2%,2.8%,-20%,3%,-6%
COc1cccc(C(C(=O)NC2CCCC2)N(C(=O)c2ccco2)c2ccc(C(C)=O)cc2)c1OC (stereo not given),8%,8%[46.1 µM],-6%,-2%,·,22%,·,-4%
CC1CCc2sc(C(=O)N(C)CC(=O)Nc3ccc(N4CCOCC4)cc3)cc2C1 (stereo not given),-9%,-3%,-6%,-7%,·,1%,·,-3%
Cc1nn(C)cc1C(N)=O,-11%,-14%[46.1 µM],0%,-5%,1.4%,2%,-5%,12%
Nc1nc2c(Cl)cc(Cl)cc2s1,9%,?,19%[46.1 µM],-17%,·,-21%,·,·
Cc1c(C(=O)NCc2ccccc2Cl)sc2ncnc(N(C)C3CCCCC3)c12,-18%,·,?,·,-2.0%,·,-1%,·
Cc1ccc(C)c(Cn2c(=O)n(CCCC(=O)NCCc3ccc(Cl)cc3)c(=O)c3ccccc32)c1,0%,-13%[46.1 µM],-13%[46.1 µM],·,-1.7%,·,5%,·
COc1ccc(S(=O)(=O)N(C)CC(=O)NCCC2=CCCCC2)cc1,-5%,-2%,-20%,10%,-0.3%,16%,-2%,?
CC(C)NS(=O)(=O)c1ccc(Oc2ncc(C(F)(F)F)cc2Cl)cc1,0%,?,?,-7%,-13%,2%,4%,-10%
CC(NS(=O)(=O)c1ccc(Cl)c(Cl)c1)C(=O)OCC(=O)N1CCCCCC1 (stereo not given),-10%,-11%,-1%,1%,·,-12%,·,·
c1ccc(-c2csc3ncnc(NCCN4CCOCC4)c23)cc1,22µM*,-12%,-29%,3%,-3.9%,-3%,-1%,9%
CCCNC(=O)COC(=O)c1ccc(OCC(=O)Nc2ccccc2OC)c(OC)c1,-5%,-20%,5%,-2%,5.7%,4%,-3%,11%
CC(=O)Nc1ccc(NC(=O)C2CCN(C(=O)c3ccc([N+](=O)[O-])cc3)CC2)cc1,1%,?,-2%[46.1 µM],-1%,·,-19%,·,·
O=C1CCC(C(=O)N2CCCC(C(=O)c3ccc4ccccc4c3)C2)=NN1 (stereo not given),-12%,2%,-21%,-4%,·,-10%,·,-9%
COc1cccc(OCCOc2ccc(/C=C3\C(=N)N4N=C(S(C)(=O)=O)SC4=NC3=O)cc2OC)c1,-20%,·,·,-2%,·,-6%,·,6%
O=c1[nH]c2ccccc2c(O)c1-c1ccccc1,-18%,·,·,9%,·,-7%,·,3%
Cc1ccc2oc(=O)c3cnn(CC(=O)N4CCN(c5ccc(F)cc5)CC4)c3c2c1,-14%,13%[46.1 µM],11%[46.1 µM],·,0.4%,·,-9%,·
COCCn1cnc2c1c(=O)n(Cc1ccccc1C#N)c(=O)n2Cc1ccccc1,9%,-2%[46.1 µM],0%[46.1 µM],-2%,·,14%,·,?
O=C(Nc1ccc(Nc2ccccc2)cc1)c1cc([N+](=O)[O-])ccc1Cl,?,·,·,-8%,·,-5%,·,18%
Cc1ccc(-c2nnnn2C2C/C(=N\NC(N)=S)C3OCC2O3)cc1 (stereo not given),22%,-24%[46.1 µM],-16%[46.1 µM],6%,·,8%,·,·
COCCCN(Cc1ccco1)C(=O)c1cc2c(s1)-c1ccccc1OC2,20%,16%[46.1 µM],·,·,?,·,?,·
Cc1cccc(NC(=O)c2cccc(C(=O)Nc3cccc(C)n3)c2)n1,-14%,?,-3%,-4%,·,-5%,·,-26%
Cc1ccc(NC(=O)c2ccc(=O)n(CC(=O)Nc3cccc(C)c3)n2)cc1,-8%,·,-9%[46.1 µM],·,2.1%,·,-13%,·
CC1CN(C(=O)CCC(=O)NCCCN2C(C)CCCC2C)c2ccccc2O1 (stereo not given),-14%,·,·,-3%,·,-3%,·,3%
O=C(NCCC1=CCCCC1)C1COc2ccccc2O1 (stereo not given),12%,?,3%,4%,-5.1%,-9%,-7%,-10%
CCc1ccc(NC(=O)Nn2cnnc2)cc1,6%,5%[46.1 µM],-14%[46.1 µM],1%,·,-10%,·,-8%
COc1cccc(CNC(=O)CC(c2ccc(C)cc2)N2Cc3ccccc3C2=O)c1 (stereo not given),21%,·,-15%[46.1 µM],·,-4.5%,·,-11%,·
Cc1ccc(C)c2[nH]c(=O)c(CN(Cc3ccco3)C(=O)Nc3ccccc3)cc12,-23%,?,?,-4%,-4.3%,10%,-28%,-51%
O=C1Nc2ccccc2C(=O)N2[C@H](c3cccc(Br)c3)[C@@H]3C(=O)N(Cc4ccccc4)C(=O)[C@@H]3[C@H]12,-11%,·,·,2%,·,-16%,·,11%
CSc1c(-c2ccccn2)c(N)nn1C(=O)C1CC1,27%,-14%,?,0%,·,7%,·,-5%
C=CCN1C(=O)C(CC(=O)O)SC1=Nc1ccc(C(=O)O)cc1 (stereo not given),-2%,-10%[46.1 µM],13%,-1%,·,22%,·,0%
CCOC(=O)N1CCN(C(=O)CN(c2cc(C(F)(F)F)ccc2Cl)S(C)(=O)=O)CC1,·,0%&15%,4%,0%,1.4%,1%,13%,-5%
O=C(/C=C/Nc1ccc(Cc2ccc(N/C=C/C(=O)C(F)(F)F)cc2)cc1)C(F)(F)F,-4%,15%,?,1%,-3.9%,9%,?,19%
COCCNC(=O)C(c1ccc(C)cc1)N(CCOC)C(=O)CCC(=O)Nc1ccccn1 (stereo not given),14%,?,-7%,1%,·,-1%,·,18%
Cc1csc(NC(=O)CSc2nnc3ncccn23)n1,-12%,4%,4%,6%,6.9%,-15%,-13%,-5%
Cn1cnnc1SCc1ccc(C(=O)N/N=C/c2cccs2)cc1,23%,23%,17%,2%,·,11%,·,1%
COC(=O)c1ccc(C2C(Oc3ccccc3)C(=O)N2CCc2ccc(OC)c(OC)c2)cc1 (stereo not given),0%,-13%,-11%,3%,-0.9%,-6%,2%,4%
CC(C)C(C)(C#N)NC(=O)CSc1nnc(C(F)(F)F)n1C (stereo not given),-22%,?,27%,6%,12%,-15%,12%,2%
Cc1nc(N2CCCC2)c2c(C(=O)Nc3ccc(Br)cc3F)c(C)oc2n1,-18%,·,-1%[46.1 µM],·,-4.7%,·,?,·
O=[N+]([O-])c1cccc(-c2csc(Nc3ccccc3)n2)c1,-10%,?,?,-6%,·,?,·,2%
O=C(OCCN=C1NS(=O)(=O)c2ccccc21)C1CC(=O)N(c2ccc3ccccc3c2)C1 (stereo not given),-3%,-16%,0%,-5%,0.0%,6%,?,-16%
O=C(CCSCCc1ccccn1)Nc1ccc(Cl)cn1,4%,-2%,40%[14.3 µM],-4%,-5.6%,-6%,-2%,0%
COc1ccc(CN2CSC(=S)N(Cc3ccc(OC)cc3)C2)cc1,-14%,·,·,-3%,·,8%,·,-68%
CN1C(=O)NC(c2ccc(O)cc2)C2=C1CN(c1ccc(O)cc1)C2=O (stereo not given),-20%,16%[46.1 µM],?,0%,·,3%,·,·
Cc1onc(-c2ccccc2)c1C(=O)Nc1nc2c(s1)CCCC2,5%,-19%,16%,0%,-4.8%,-5%,-3%,-14%
CN1C(=O)c2ccc(NC(=O)CSc3ccccc3)cc2C1=O,25%,·,·,-2%,·,-17%,·,-17%
Cn1cc(Br)c(C(=O)NNC(=O)c2ccc(Cl)cc2)n1,36%[activator],?,0%,-5%,-1.0%,-2%,-12%,-8%
O=C(N/N=C/c1ccc(OC(=O)c2ccccc2Br)cc1)c1ccccn1,1%,8%,?,?,·,-15%,·,7%
